From PubChem
Beta cell apopt: inhibitors of cytokine-induced beta cell apoptosis, primary screen, luminescence; protection from apoptosis, % (concentration not given with the values); INS-1E cytokine-induced death, ATP luminescence, 48 h; percent of positive-control rescue, neutral wells zero; 300,000 tested, 0.8% active;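 active = all replicates at 75% or more, or half of them and the mean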;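 note: 0% = cytokine-treated negative control wells and 100% = positive control rescue; higher means more ATP so stronger rescue from cytokine killing; wells of about 40 µL received 100 nL stock; the first replicate is given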
T cruzi repl: inhibitors of intracellular T. cruzi growth, primary screen, luminescence, NIH3T3 host cells. T. cruzi beta-gal in NIH3T3, 90 h. inhibition, % (concentration not given with the values). 300,000 tested, 1.4% active. AID 1885, 2009;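 active = mean inhibition across valid replicates above about 55%, limit read from the data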;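 note: signal also drops with host cell toxicity which is not excluded here; 0% = plate median of DMSO wells and 100% = zero luminescence signal; higher percent means less beta-gal luminescence so fewer parasites; stock transfer was 50 nL into about 50 µL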
FGF22 binding: binders of human FGF22 protein, primary screen, FGF22 synaptogenesis inhibitor project, biophysical, thermal shift, single point; recombinant FGF22 thermal shift, SYPRO orange fluorescence; percent of sucrose octasulfate shift, DMSO zero; 340,000 tested, 1.5% active; calls only at 9.99 µM; AID 651658, 2012; Fibroblast growth factor 22 (Homo sapiens), Q9HCT0;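 active = melting point raised past a set limit in the mean and every replicate; three in four hits are not shown here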
Target sequence (Q9HCT0 whole entry, looked up): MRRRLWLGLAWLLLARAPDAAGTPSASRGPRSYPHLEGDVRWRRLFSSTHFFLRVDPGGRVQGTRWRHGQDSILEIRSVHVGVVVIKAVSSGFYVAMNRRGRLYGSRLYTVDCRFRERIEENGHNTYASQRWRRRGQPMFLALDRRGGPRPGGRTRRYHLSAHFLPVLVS
rRNA inh HTS: reduced GFP signal of wild-type E. coli, primary screen, bacterial rRNA inhibitor project, GFP/RFP fluorescence, OD600, single point. E. coli WT GFP vs humanized-ribosome RFP mutants, 24 h; active compounds read low; DMSO median 0, no signal -100. GFP signal change (wild-type ribosome), % (test concentration not listed). 350,000 tested, 1.6% active. AID 720706, 2013;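 active = significant combined selectivity score with lowered wild-type GFP, culture density cut under 30%, mutant RFP and density less affected; inactive = any of these conditions unmet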; note: one replicate is shown; some compounds called inactive have numbers as strong as hits
Bfl-1 A1 inh: caspase 3/7 activation in MEF A1-2A-BIM cells, primary screen, A1 inhibitor project, cell-based, luminescence, HTS | caspase activation, % (no concentration beside the values) | AID 2462, 2010 | 330,000 tested, 0.066% active | Caspase-Glo 3/7 luminescence, 3 h; percent of clofoctol response, vehicle zero;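 active = over half of replicate activation scores above 10%, or exactly half above 10 with the replicate mean above 10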;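 note: wells of about 30 µL received 50 nL stock; many hits fall short of the cut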
AF4-AF9 inh: inhibitors of AF4 peptide binding to AF9, primary screen, biochemical, AlphaScreen, biotin-AF4 peptide, FLAG-AF9, single point. Protein AF-9 (Homo sapiens), P42568. inhibition, % at 10 µM. 350,000 tested, 0.47% active. AID 651704, 2012;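 active = every replicate reaching a set inhibition limit, whatever the replicate mean, cut at about 25% in these data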;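 note: 0% = plate neutral control median and 100% = total signal loss; the record names both 10 and 1 µM as test concentration; the first replicate is given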
Target sequence (P42568 whole entry, looked up): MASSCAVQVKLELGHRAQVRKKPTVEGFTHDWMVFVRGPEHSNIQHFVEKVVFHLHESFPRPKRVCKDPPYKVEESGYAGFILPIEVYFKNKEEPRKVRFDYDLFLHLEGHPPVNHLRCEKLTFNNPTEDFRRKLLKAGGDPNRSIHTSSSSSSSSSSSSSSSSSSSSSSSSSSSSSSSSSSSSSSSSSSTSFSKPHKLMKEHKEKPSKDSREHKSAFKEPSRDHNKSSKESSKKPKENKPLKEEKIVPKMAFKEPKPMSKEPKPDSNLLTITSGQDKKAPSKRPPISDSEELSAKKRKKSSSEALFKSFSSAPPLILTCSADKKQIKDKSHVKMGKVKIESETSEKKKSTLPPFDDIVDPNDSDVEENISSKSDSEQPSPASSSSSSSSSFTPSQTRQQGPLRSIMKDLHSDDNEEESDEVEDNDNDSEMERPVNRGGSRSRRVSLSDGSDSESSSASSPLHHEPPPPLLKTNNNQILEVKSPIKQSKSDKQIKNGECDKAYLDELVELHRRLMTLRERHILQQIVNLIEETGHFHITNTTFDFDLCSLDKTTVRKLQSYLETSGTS
E coli growth: E. coli growth inhibition, primary screen, OD600 | Escherichia coli growth, 23 h; active compounds read low | OD600 absorbance (concentration not given with the values) | 330,000 tested, 0.21% active | AID 1053175, 2014;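 active = OD600 absorbance below the run mean of sample wells minus 3.6 SD, in any replicate, cut at about 0.56 in these data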;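 note: stock transfer was 300 nL into about 60 µL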
UCH37 inh: inhibitors of human UCH37 deubiquitinase, primary screen, biochemical, Ub-AMC cleavage, fluorescence. Ubiquitin carboxyl-terminal hydrolase isozyme L5 (Homo sapiens), Q9Y5K5. purified proteasome/UCH37. inhibition, % (concentration not given with the values). 330,000 tested, 0.33% active. AID 588478, 2011;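 active = mean of two replicates above 20%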;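 note: 0% = compound-free wells with enzyme and 100% = wells lacking proteasome; stock transfer was 100 nL into about 20 µL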
Target sequence (Q9Y5K5 whole entry, looked up): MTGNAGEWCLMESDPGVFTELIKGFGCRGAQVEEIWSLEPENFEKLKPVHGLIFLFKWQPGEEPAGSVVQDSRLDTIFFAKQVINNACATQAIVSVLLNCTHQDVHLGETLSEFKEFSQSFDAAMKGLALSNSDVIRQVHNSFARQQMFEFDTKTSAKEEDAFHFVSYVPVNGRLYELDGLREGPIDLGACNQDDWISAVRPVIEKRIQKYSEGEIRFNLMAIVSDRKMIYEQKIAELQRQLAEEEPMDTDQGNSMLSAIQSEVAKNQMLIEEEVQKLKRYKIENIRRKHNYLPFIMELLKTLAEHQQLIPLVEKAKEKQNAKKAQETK
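System: Proteasome-associated human UCH37 deubiquitinase; Input: 0.15 nM proteasome in added enzyme buffer; Also added: Ub-AMC substrate from 1 µM stock; Incubation: 30 min compound-proteasome preincubation then 25 min substrate reaction, room temperature; Detection: fluorescence, ex 355 nm, em 460 nm; Read-out: % inhibition of Ub-AMC cleavage fluorescence; Benchmarks: no-proteasome and no-compound wells.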
rRNA inh HTS OD600: also measured in rRNA inh HTS; calls as there; OD600 change, %; measured here: OD600 growth;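 optical density of the mix in the first replicate; 0 = DMSO median and -100 = no signal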
rRNA inh HTS RFP: further read-out of rRNA inh HTS, marked with its call; RFP signal change, %; measured here: RFP humanized mutant strains;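 first replicate; 0 = DMSO median and -100 = no signal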
Starred values were filed as active, the others as inactive; i = inactive; · = not tested or not shown. These rows are one share of the data (hit frequency here may not be typical).

smiles	Beta cell apopt	T cruzi repl	FGF22 binding	rRNA inh HTS	rRNA inh HTS OD600	rRNA inh HTS RFP	Bfl-1 A1 inh	AF4-AF9 inh	E coli growth	UCH37 inh
COc1ccc(-n2c(N)c(C#N)c3ccc([N+](=O)[O-])cc3c2=O)cc1	-10	-7	i	22	13	2.5	0.7	-2.0	0.73	0.9
Cn1c(SCc2nc3ccccc3[nH]2)nnc1-c1cccnc1	-5	-6	·	12	7	-0.9	-0.1	·	0.68	-1.8
CCC(C)c1ccccc1NC(=O)COC(=O)C1=NN(c2ccccc2)C(=O)CC1 (centres undefined)	-8	·	·	6	11	4.0	-0.3	0.9	0.67	2.0
Nc1ccc(Nc2nc(-c3ccncc3)cs2)cc1	-31	4	i	-17*	6.5*	4.7*	-2.4	5.1	0.64	3.0
Cc1ccc(C(C(=O)NCc2ccco2)N(C(=O)CNC(=O)c2cccs2)c2c(C)cccc2C)cc1 (centres undefined)	36	9	i	21	20	-3.6	0.5	-3.0	0.72	5.1
CCC(=O)N1CCc2cc(Br)cc(S(=O)(=O)CC(=O)OC)c21	3	-18	·	·	·	·	-0.2	·	0.75	3.5
CCOc1cc(S(=O)(=O)N2CCCC2)ccc1Cl	2	1	i	2	3	3.5	-0.2	2.7	0.68	1.7
CC(C)(C)OC(=O)C[C@@H]1C/C=C\C[C@H](CC(=O)NCCO)C(=O)NC[C@@H](c2ccccc2)OC1=O	-8	·	i	2	8	-1.0	0.5	4.2	·	-0.4
O=C(NC1CCCCC1)C(=O)c1c[nH]c2ccccc12	-1	-3	i	7	5	1.2	-3.1	-9.7	·	·
CCOc1ccc(NC(=O)CN2CCN(CC(=O)Nc3ccc(C(N)=O)cc3)CC2)cc1	-3	-10	i	2	0	-0.9	2.8	-1.7	0.66	-1.1
CCN(Cc1ccccc1)S(=O)(=O)c1cc2c3c(c1)CCN3C(=O)CC2	·	-1	·	-11	-16	-2.2	·	-2.4	0.7	5.1
Cc1ccc(S(=O)(=O)Nc2cccc(Cl)c2)cc1NC(=O)c1cccnc1	-2	21	i	-15	-14	-1.5	1.1	0.0	0.68	5.4
Cc1c(N=Cc2c(O)n(C)c(=O)c3ccccc23)c(=O)n(-c2ccccc2)n1C	9	-13	·	·	·	·	-0.8	·	0.72	0.5
CC1(c2ccccc2)NC(=O)N(CC(=O)Nc2cccc(C#N)c2)C1=O (centres undefined)	-3	6	·	·	·	·	0.6	·	0.73	3.8
CCCCN1C(=O)C(=O)N(CC(=O)N2CCN(c3ccccc3)CC2)C1=O	0	-18	i	7	5	-0.7	0.2	-0.2	0.69	-0.3
Cc1ccccc1NC(=O)Cn1cnc2c(oc3nc4c(cc32)CCCC4)c1=O	1	17	i	-2	-2	-5.3	0.2	-3.6	0.67	-1.8
Cc1cc(=O)oc(C)c1C(=O)NCC(C)NC(=O)c1c(C)cc(=O)oc1C (centres undefined)	-9	-21	·	·	·	·	-0.1	·	0.74	-0.7
OCc1nc(CO)n(Cc2ccccc2)n1	-2	-17	·	·	·	·	0.8	·	0.67	1.3
Cc1ccc(CNC(=O)C2CC(c3cccc(F)c3)=NO2)cc1 (centres undefined)	-4	-34	i	12	10	-3.1	-0.3	-2.9	0.69	2.2
Cc1nn(-c2ccc(Br)cc2)c(=O)c2ccccc12	-2	-9	i	15	14	0.3	1.1	-2.7	0.7	0.2
CC(=O)NCCn1c(C)cc2ccccc21	-2	-5	i	-10	-2	25	0.8	0.5	0.81	5.4
CCOc1ccc(OCC)c(NC(=O)C2CCN(c3ncccn3)CC2)c1	5	-1	·	·	·	·	-0.3	·	0.65	4.7
Cc1cc(C)n(CCC(=O)N2c3ccccc3CC2C)n1 (centres undefined)	-1	-8	i	-1	10	2.8	0.4	3.2	0.68	1.3
NNC(=O)CN1CCCc2ccccc21	-3	12	i	5	3	-3.3	-1.8	1.5	0.66	-12
CN(C)c1nc(Nc2ccc(Cl)c(Cl)c2)nc(N(C)C)n1	2	10	i	14	37	5.5	0.0	3.4	·	·
CCN(Cc1ccccc1)C(=O)C1CCN(Cc2ccc(OC)c(OC)c2OC)CC1	-1	1	·	·	·	·	0.0	·	0.7	8.0
C=COCCNC(=O)C(=O)NCC(C)C	-5	-6	·	·	·	·	0.0	·	0.72	1.2
Brc1ccccc1C1=Nn2c(nnc2-c2ccccc2)SC1	·	-5	·	·	·	·	1.7	·	0.69	2.4
OC(COc1ccc(Cl)cc1Cl)CN1CCc2ccccc2C1 (centres undefined)	·	11	i	-54	-77	-16	-0.1	-0.2	0.6	3.9
Clc1ccc(OCc2nnnn2-c2ccccc2)cc1	-2	5	·	·	·	·	1.4	·	0.72	2.7
CCCCn1c(SCc2nc3ccccc3s2)nc2cc(S(N)(=O)=O)ccc21	3	5	·	·	·	·	-0.4	·	0.73	1.2
O=C1CSC(c2cccnc2)N1CCc1ccccn1 (centres undefined)	-4	-3	i	8	-7	-0.9	-0.9	-6.4	0.68	0.6
CCCC(=O)N(c1ccc(OCC)cc1)S(=O)(=O)c1ccc2c3c(cccc13)C(=O)N2C	22	15	i	9	6	-2.0	2.7	-0.9	0.72	-392
Cc1ccc(Cl)cc1NC(=O)C1CC(=O)N(C(C)C)C1 (centres undefined)	-7	3	i	-8	2	-4.3	0.8	3.6	0.64	3.1
O=C(N/N=C/c1cccs1)c1cc(-c2ccc(Cl)s2)[nH]n1	7	5	i	-22*	-0.6*	1.9*	-0.4	2.1	·	·
O=C(CSc1nnc(Nc2ccccc2F)s1)NC(=O)CN1CCCC1=O	5	·	i	8	12	0.4	-7.3	-1.3	0.69	3.4
CC(=O)Nc1nc(C)c(S(N)(=O)=O)s1	-1	-10	·	·	·	·	0.0	·	0.72	-1.6
CCOC(=O)N1CCN(c2cc(=O)n(C3CCCCC3)c(=O)[nH]2)CC1	2	-5	·	·	·	·	0.1	·	0.73	-0.6
COc1cccc(CNC(=O)CN2C(=O)COc3ccc(S(=O)(=O)N4CCCCCC4)cc32)c1	8	7	i	-18	-14	-2.2	3.8	-2.5	0.7	2.1
Cc1nc(SCC(=O)NCc2ccco2)c2c3c(sc2n1)CCCC3	10	19	·	·	·	·	1.8	·	0.72	1.2
O=c1nc(-c2ccccc2)cc(-c2ccccc2)[nH]1	0	-11	·	·	·	·	-0.6	·	0.68	-121
Cc1nn(-c2ccccc2)c(Cl)c1C(=O)OC(C)C(=O)Nc1ccc2c(c1)OCO2 (centres undefined)	2	19	·	·	·	·	-0.6	·	0.67	0.7
CCOc1cc(C(=O)NC(C)C2CCCO2)cc(OCC)c1OCC (centres undefined)	-1	-2	i	4	8	-0.5	0.1	0.4	0.7	0.0
Cc1nn(Cc2ccc(C(=O)n3cccn3)o2)c(C)c1Br	-21	-8	·	·	·	·	0.5	·	0.69	4.8
CC(OC(=O)c1ccc(S(=O)(=O)NCc2ccco2)cc1)C(=O)Nc1ncc(Cl)cc1Cl (centres undefined)	-10	-5	i	-1	-3	-3.6	0.5	4.7	0.68	1.4
CCOC(=O)Cn1nnnc1CN(Cc1cccs1)Cc1cc2cc(C)cc(C)c2[nH]c1=O	1	6	·	·	·	·	0.0	·	0.72	-16
Cc1ccc(NC(=O)CSc2cccc3cccnc23)c(C)c1	13	26	i	4	-1	-3.2	0.0	0.2	0.68	-25
COc1ccccc1C(=O)N/C(=C/c1ccc2c(c1)OCO2)C(=O)Nc1cccc(C(=O)O)c1	-4	5	i	6	0	7.8	-0.3	0.6	0.63	4.7
N#CCSc1nc2ccccc2c(=O)n1CCCC(=O)NCC1CCCO1 (centres undefined)	-6	4	i	1	0	-1.7	0.4	-3.3	0.67	0.2
COC(=O)CCCC(=O)NC1CC(C)(C)Cc2c1cnn2-c1ccc(C)cc1 (centres undefined)	·	-10	i	-6	-5	-3.0	0.2	-0.1	0.72	1.0
CC(C)=C(NC(=O)c1ccccc1)C(N)=O	-5	2	i	13	9	1.4	0.5	0.6	0.65	4.6
O=C(Nc1nnc(-c2cccnc2)o1)c1cccc([N+](=O)[O-])c1	1	0	·	·	·	·	-1.1	·	0.69	6.0
COc1ccccc1C1=NOC(C)(c2nnc(Cc3ccccc3)o2)C1 (centres undefined)	-6	2	i	1	2	0.6	1.2	-22	0.68	4.4
O=c1cc(O)sc2ccccc12	-7	-6	·	·	·	·	0.1	·	0.76	-0.5
CCOC(=O)CC1=NN(c2ccccc2)C(=O)C1	0	-28	i	3	2	-2.2	-0.5	-0.7	0.69	0.9
CC1=C(C#N)C(c2ccc(O)cc2)C(C#N)=C(C)N1	-8	-2	i	-6	-4	-3.9	0.4	-0.2	0.64	-10
O=C(Cc1ccc(F)cc1)Nc1nc(-c2ccc(F)c(F)c2)cs1	3	14	i	-28	-48	-12	1.2	-2.0	0.67	3.9
O=C(O)c1ccccc1OCCN1CCCC1=O	1	-4	i	7	11	4.2	0.7	-0.2	0.62	1.6
CCC(=O)c1c(OCc2ccccc2)ccc2c(C)cc(=O)oc12	2	20	·	·	·	·	-0.3	·	0.7	0.8
Cc1ccc(CCN2CC(C(=O)NC3CCCC3)CC2=O)cc1 (centres undefined)	-1	-7	·	·	·	·	0.4	·	0.7	5.1

The list continues:
smiles	Beta cell apopt	T cruzi repl	FGF22 binding	rRNA inh HTS	rRNA inh HTS OD600	rRNA inh HTS RFP	Bfl-1 A1 inh	AF4-AF9 inh	E coli growth	UCH37 inh
Cc1cc(C)n(Cc2ccc(C(=O)Nc3ccc(Br)cc3C)o2)n1	-6	-5	·	·	·	·	0.4	·	0.71	4.5
CC(C)N(c1ccccc1)c1ccc(NC(=O)COC(=O)CCN2C(=O)c3cccc([N+](=O)[O-])c3C2=O)cc1	2	12	i	-5	1	20	-0.1	-25	0.71	5.6
O=[N+]([O-])c1cc(C(F)(F)F)cc([N+](=O)[O-])c1NCCNC(=S)Nc1cccc(F)c1	-1	21	i	-25*	-11*	3.0*	0.6	·	0.65	4.9
O=C(COC(=O)c1ccc2c(c1)OCO2)Nc1cccc(F)c1	-1	·	i	9	4	-1.7	0.4	2.5	0.65	1.5
Cc1nnc(NC(=O)C2CC(=O)N(Cc3ccccc3)C2)s1 (centres undefined)	-2	-6	i	7	14	0.3	0.4	-0.8	0.69	-1.7
COc1ccc(OCCCCc2c(C)n[nH]c2C)cc1	·	4	·	-33	-55	-10	1.2	2.5	0.7	2.1
